Vaccinia inh – Vaccinia orthopox stage-specific inhibition; AID 1053133; hit rate 0.01% among 89,000; activity change (mCherry), % (no concentration beside the values); Vaccinia-infected cells, mCherry/Venus stage reporter fluorescence; stronger effect = lower value; some inactives read as strong as hits;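 active means mCherry past -33% and 40 or more points under the early reporter, replicates agreeing; inconclusive means past -33% without that gap or agreement; tested in A549 cells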;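 further: scaled between vehicle wells and reference inhibitor wells; 23 nL library stock went into each well; one replicate is shown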
Vaccinia inh Venus – further read-out of Vaccinia inh, marked with its call; activity change (Venus), %; measured here: Venus reporter, other viral stage;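 negative = less Venus signal; first of two replicates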
Numbers without * were called inactive; u = inconclusive; x = not tested or not shown. Some of the compounds tested, so the mix of outcomes need not match the whole.

SMILES | Vaccinia inh | Vaccinia inh Venus
CN(C)CC(=O)Nc1ccc2c(c1)[C@H]1C[C@H](CC(=O)NCc3ccc(Cl)cc3)O[C@@H](CO)[C@H]1O2 | 11 | 10
C[C@H](CO)N1C[C@H](C)[C@@H](CN(C)C(=O)Nc2ccc(C(F)(F)F)cc2)Oc2c(NC(=O)c3cnccn3)cccc2C1=O | -2 | -1
COc1ccc([Si](C)(C)[C@@H]2[C@@H](CCO)O[C@]3(C(=O)N(C)c4ccccc43)[C@H]2C)cc1 | u | x
C/C=C/c1ccc2c(c1)O[C@H](CN(C)C(=O)COC)[C@@H](C)CN([C@@H](C)CO)S2(=O)=O | 4 | 0
CC(C)NC(=O)N(C)C[C@H]1Oc2cc(Br)ccc2S(=O)(=O)N([C@@H](C)CO)C[C@@H]1C | 6 | -3
C[C@@H]1CN([C@H](C)CO)C(=O)c2cccc(N(C)C)c2O[C@H]1CN(C)S(C)(=O)=O | 15 | 10
COCC#Cc1ccc2c(c1)O[C@@H](CN(C)Cc1ccc(F)cc1)[C@@H](C)CN([C@H](C)CO)S2(=O)=O | -19 | -19
Cc1ccc(S(=O)(=O)N2C[C@@H](O)COC[C@@H]3O[C@H](CC(=O)NCCN4CCCCC4)CC[C@H]32)cc1 | -4 | -6
Cc1noc(C)c1NC(=O)N(C)C[C@H]1Oc2c(NC(=O)Nc3cccc4ccccc34)cccc2C(=O)N([C@H](C)CO)C[C@H]1C | 0 | -9
C[C@H]1CN([C@@H](C)CO)C(=O)Cc2cc(NC(=O)Nc3ccc(F)cc3)ccc2O[C@H]1CN(C)Cc1ccc(C(=O)O)cc1 | -5 | -1
C[C@@H]1CN([C@@H](C)CO)C(=O)c2cccc(NC(=O)C3CC3)c2O[C@@H]1CN(C)Cc1ccccc1 | 8 | 1
COc1cccc(C#Cc2cnc3c(c2)C(=O)N([C@H](C)CO)C[C@H](C)[C@H](CN(C)C(=O)C2CCCCC2)O3)c1 | -23 | -17
COc1ccc(S(=O)(=O)Nc2ccc3c(c2)C(=O)N([C@H](C)CO)C[C@H](C)[C@H](CN(C)C(=O)Nc2ccc(F)cc2)OCCCC[C@@H](C)O3)cc1 | 7 | -2
CNC[C@@H]1Oc2ccc(NC(=O)Nc3cccc4ccccc34)cc2CC(=O)N([C@@H](C)CO)C[C@@H]1C | 13 | 16
CCC(=O)N1CC[C@@H]2[C@H](CO)Nc3ccc(-c4ccc(F)cc4)cc3[C@@H]21 | -27 | -23
CCC(=O)N1CC(=O)N2[C@H](CO)[C@@H](c3ccc(-c4ccc(C#N)cc4)cc3)[C@@H]2C1 | 9 | 3
COCC#Cc1ccc([C@H]2[C@@H](CO)N3CCCCN(C(=O)NC4CCCC4)C[C@H]23)cc1 | -4 | -8
C[C@H](CO)N1C[C@H](C)[C@H](CN(C)Cc2ccc(C(=O)O)cc2)Oc2ccc(NS(=O)(=O)c3ccc(Cl)cc3)cc2C1=O | 42 | 16
CCCNC(=O)N1CC2(C1)[C@H](c1ccccc1)[C@@H](CO)N2Cc1ccc(F)cc1 | -14 | 0
C[C@@H]1CN([C@H](C)CO)S(=O)(=O)c2ccc(C#CC(C)(C)O)cc2O[C@@H]1CN(C)Cc1ccncc1 | 2 | -4
CN(C)C(=O)[C@H]1[C@H](CO)[C@H]2Cn3c(ccc(C4=CCCC4)c3=O)[C@@H]1N2CC1CCOCC1 | -7 | 1
COCC#Cc1ccc([C@@H]2[C@@H](CO)N3CCCCN(C(=O)NC4CCCC4)C[C@@H]23)cc1 | 5 | 1
C[C@H]1CN([C@@H](C)CO)C(=O)c2cc(-c3ccc(C#N)cc3)cnc2O[C@@H]1CN(C)C(=O)Nc1ccc(F)cc1 | 14 | 9
C[C@@H]1CN([C@H](C)CO)C(=O)c2cc(-c3ccccc3F)cnc2O[C@H]1CN(C)C(=O)NC1CCCC1 | 16 | 15
CC(C)NC(=O)N(C)C[C@@H]1Oc2c(NC(=O)NC3CCCCC3)cccc2C(=O)N([C@@H](C)CO)C[C@@H]1C | -7 | -3
C[C@@H]1CN([C@@H](C)CO)C(=O)c2cc(NS(C)(=O)=O)ccc2O[C@@H](C)CCCCO[C@@H]1CN(C)C(=O)C1CCCCC1 | 4 | 1
C[C@@H]1CN([C@H](C)CO)C(=O)c2cccc(NS(=O)(=O)c3ccc(Cl)cc3)c2O[C@H]1CN(C)C(=O)Nc1ccccc1 | -1 | -5
C/C=C/c1cnc2c(c1)C(=O)N([C@H](C)CO)C[C@@H](C)[C@@H](CN(C)S(=O)(=O)c1ccc(OC)cc1)O2 | 23 | -7
CC(C)NC(=O)NCC[C@@H]1CC[C@H](NC(=O)c2ccc(F)cc2)[C@@H](CO)O1 | 1 | 2
C[C@H](CO)N1C[C@H](C)[C@H](CN(C)Cc2ccc(Cl)c(Cl)c2)Oc2ccc(NC(=O)C3CC3)cc2C1=O | 1 | 0
O=C(NCc1ccccc1)[C@H]1[C@H](CO)[C@H]2Cn3c(cccc3=O)[C@H]2N1C(=O)C1CC1 | 9 | 10
CCCN1[C@@H]2c3ccc(-c4cccc(OC)c4)c(=O)n3C[C@H]1[C@H](CO)[C@H]2C(=O)NCC | 12 | -4
CCC(=O)N1CCC2(CC1)CN(Cc1nccs1)[C@H](CO)c1c2c2ccc(OC)cc2n1C | 12 | 2
C[C@@H]1CCCCO[C@H](CN(C)Cc2ccc(C(=O)O)cc2)[C@@H](C)CN([C@H](C)CO)C(=O)c2cc(NC(=O)Nc3ccc(F)cc3)ccc2O1 | 34 | 12
C[C@H]1CN([C@@H](C)CO)C(=O)CCCn2cc(nn2)CO[C@H]1CN(C)C | 0 | -2
Cc1ccc(S(=O)(=O)N[C@H]2C=C[C@@H](CC(=O)NCCc3ccncc3)O[C@H]2CO)cc1 | -4 | 1
CCCC#Cc1cnc2c(c1)C(=O)N([C@@H](C)CO)C[C@H](C)[C@@H](CN(C)C(=O)Nc1cccc(F)c1)O2 | -3 | -5
O=C(C[C@H]1C[C@@H]2c3cc(NC(=O)CC4CC4)ccc3O[C@@H]2[C@@H](CO)O1)NCC1CC1 | 9 | 9
C[C@H]1CN([C@@H](C)CO)C(=O)c2cc(Br)cnc2O[C@H]1CN(C)S(=O)(=O)c1ccc(F)cc1 | 5 | -10
Cc1noc(C)c1NC(=O)Nc1ccc2c(c1)C(=O)N([C@@H](C)CO)C[C@H](C)[C@@H](CN(C)S(=O)(=O)c1cn(C)cn1)O2 | 15 | 9
O=C(C[C@@H]1C=C[C@H](NS(=O)(=O)c2ccccc2)[C@H](CO)O1)N1CCN(c2ccccc2)CC1 | 4 | 0
O=C(c1ccc(F)cc1)N1CC(=O)N2[C@@H](CO)[C@H](c3ccc(/C=C/c4ccccc4)cc3)[C@@H]2C1 | 0 | 5
COc1cccc(S(=O)(=O)N[C@@H]2CC[C@@H](CCn3cc(-c4ccc(F)cc4)nn3)O[C@@H]2CO)c1 | -16 | -6
O=C(NCC[C@@H]1CC[C@H](NS(=O)(=O)c2ccccc2)[C@@H](CO)O1)c1ccc2c(c1)OCO2 | 7 | 4
O=C(CN1CCOCC1)N1CC2(C1)[C@H](c1ccccc1)[C@@H](CO)N2Cc1ccc(F)cc1 | 0 | 2
C[C@H](CO)N1C[C@H](C)[C@@H](CN(C)C(=O)CCC(F)(F)F)OCCCC[C@H](C)Oc2ccc(NC(=O)Cc3ccccc3)cc2C1=O | -1 | -2
C[C@@H]1CN([C@H](C)CO)C(=O)c2cc(NS(=O)(=O)c3cn(C)cn3)ccc2O[C@@H](C)CCCCO[C@@H]1CN(C)S(C)(=O)=O | 17 | 14
C[C@@H]1CN([C@H](C)CO)C(=O)c2c(c3ccccc3n2C)-c2ccccc2CO[C@H]1CN(C)C(=O)c1cc(Cl)cc(Cl)c1 | u | x
C[C@H](CO)N1C[C@H](C)[C@H](CN(C)Cc2ccc(F)cc2)Oc2ncccc2C1=O | 23 | 16
CO[C@H](CN(C)Cc1cc(F)ccc1F)[C@H](C)CN(C(=O)Nc1ccc(C(F)(F)F)cc1)[C@H](C)CO | -14 | -14
Cc1noc(C)c1S(=O)(=O)Nc1ccc2c(c1)C(=O)N([C@@H](C)CO)C[C@H](C)[C@@H](CN(C)C(=O)c1ccncc1)OCCCC[C@H](C)O2 | 14 | 6
CC=Cc1ccc2n(c1=O)C[C@@H]1[C@@H](CO)[C@H](C(=O)NCC)N(C(=O)CC3CC3)[C@H]21 (mixture of isomers) | 17 | 11
CCC(=O)N1C[C@H](C)[C@H](OC)CN(C)C(=O)c2cc(NC(=O)Nc3cccc(F)c3)ccc2OC[C@H]1C | 10 | 11
CCNC(=O)[C@H]1[C@H](CO)[C@H]2Cn3c(ccc(-c4ccc(F)cc4)c3=O)[C@@H]1N2C(=O)C1CC1 | -8 | -3
COc1ccccc1CNC(=O)C[C@@H]1C[C@H]2c3cc(NC(=O)NC4CCCC4)ccc3O[C@H]2[C@@H](CO)O1 | 7 | -5
CCC(=O)Nc1ccc2c(c1)C(=O)N(C)C[C@H](OC)[C@@H](C)CN(C(C)=O)[C@@H](C)CO2 | 1 | 3
Cc1cccc(-c2ccc([C@@H]3[C@H](CO)N4C(=O)CN(C(=O)c5ccccc5)C[C@@H]34)cc2)c1 | -22 | -20
CO[C@@H](CN(C)S(=O)(=O)c1ccccc1)[C@@H](C)CN(C(=O)Nc1ccccc1F)[C@H](C)CO | 6 | 10
C[C@H](CO)N1C[C@H](C)[C@@H](CN(C)C(=O)Cc2ccccn2)Oc2ncc(C#CC3CC3)cc2C1=O | 22 | 5
C[C@H](CO)N1C[C@H](C)[C@@H](CN(C)C(=O)Nc2ccc(C(F)(F)F)cc2)Oc2ccc(NS(=O)(=O)c3ccccc3)cc2CC1=O | -8 | -3

Part of the list above, with values under each structure:
Second line of a record: Vaccinia inh | Vaccinia inh Venus
> CN(C)CC(=O)Nc1ccc2c(c1)[C@H]1C[C@H](CC(=O)NCc3ccc(Cl)cc3)O[C@@H](CO)[C@H]1O2
  11 | 10
> C[C@H](CO)N1C[C@H](C)[C@@H](CN(C)C(=O)Nc2ccc(C(F)(F)F)cc2)Oc2c(NC(=O)c3cnccn3)cccc2C1=O
  -2 | -1
> COc1ccc([Si](C)(C)[C@@H]2[C@@H](CCO)O[C@]3(C(=O)N(C)c4ccccc43)[C@H]2C)cc1
  u | x
> C/C=C/c1ccc2c(c1)O[C@H](CN(C)C(=O)COC)[C@@H](C)CN([C@@H](C)CO)S2(=O)=O
  4 | 0
> CC(C)NC(=O)N(C)C[C@H]1Oc2cc(Br)ccc2S(=O)(=O)N([C@@H](C)CO)C[C@@H]1C
  6 | -3
> C[C@@H]1CN([C@H](C)CO)C(=O)c2cccc(N(C)C)c2O[C@H]1CN(C)S(C)(=O)=O
  15 | 10
> COCC#Cc1ccc2c(c1)O[C@@H](CN(C)Cc1ccc(F)cc1)[C@@H](C)CN([C@H](C)CO)S2(=O)=O
  -19 | -19
> Cc1ccc(S(=O)(=O)N2C[C@@H](O)COC[C@@H]3O[C@H](CC(=O)NCCN4CCCCC4)CC[C@H]32)cc1
  -4 | -6
> Cc1noc(C)c1NC(=O)N(C)C[C@H]1Oc2c(NC(=O)Nc3cccc4ccccc34)cccc2C(=O)N([C@H](C)CO)C[C@H]1C
  0 | -9
> C[C@H]1CN([C@@H](C)CO)C(=O)Cc2cc(NC(=O)Nc3ccc(F)cc3)ccc2O[C@H]1CN(C)Cc1ccc(C(=O)O)cc1
  -5 | -1

Next results follow:
SMILES | Vaccinia inh | Vaccinia inh Venus
O=C(Cc1ccncc1)NCC[C@H]1CC[C@@H](NC(=O)Nc2ccc(Cl)cc2)[C@H](CO)O1 | 18 | 19
O=C(Cc1ccncc1)NCC[C@@H]1CC[C@@H](NC(=O)C2CCOCC2)[C@H](CO)O1 | 9 | 9
CCNC(=O)[C@@H]1[C@@H](CO)[C@@H]2Cn3c(ccc(C4=CCCC4)c3=O)[C@H]1N2Cc1ccncc1 | 15 | 9
C[C@@H]1CCCCO[C@H](CN(C)C(=O)C2CCCCC2)[C@@H](C)CN([C@@H](C)CO)C(=O)c2cc(NC(=O)Cc3ccccc3)ccc2O1 | u | x
Cc1noc(C)c1S(=O)(=O)N(C)C[C@@H]1Oc2ccc(NC(=O)C3CC3)cc2CC(=O)N([C@H](C)CO)C[C@@H]1C | 12 | 8
CCOC(=O)c1ccc(NC(=O)O[C@H]2[C@H](OC(=O)Nc3ccc4c(c3)OCO4)[C@@H](OC(=O)Nc3ccc4c(c3)OCO4)[C@@H](OC)O[C@@H]2CO)cc1 | -7 | -3
C[C@@H]1CN([C@H](C)CO)C(=O)c2cc(NC(=O)c3ccncc3)ccc2O[C@@H]1CN(C)C(=O)NC1CCCCC1 | 10 | 6
COc1ccc2c3c(n(C)c2c1)[C@@H](CO)N(C(=O)NC1CCCC1)CC31CCN(C(C)=O)CC1 | 17 | 8
Cc1ccc(S(=O)(=O)Nc2ccc3c(c2)CC(=O)N([C@@H](C)CO)C[C@@H](C)[C@@H](CN(C)CC2CC2)O3)cc1 | -9 | -2
COc1ccc2c3c([nH]c2c1)[C@H](CO)N(C(=O)C1CCC1)CC31CCN(C(=O)c2ccncc2)CC1 | 12 | 11
C[C@@H]1CN([C@H](C)CO)C(=O)Cc2cc(NC(=O)Cn3cnnn3)ccc2O[C@@H]1CN(C)Cc1ccc(C(F)(F)F)cc1 | 4 | -1
CCC(=O)N1CCC2(CC1)CN(C(=O)Nc1ccc(F)cc1)[C@@H](CO)c1c2c2ccc(OC)cc2n1C | -11 | -5
CC(C)NC(=O)Nc1ccc2c(c1)C(=O)N([C@H](C)CO)C[C@H](C)[C@H](CN(C)S(=O)(=O)c1ccc(Cl)cc1)OCCCC[C@@H](C)O2 | 19 | 12
COc1ccc(S(=O)(=O)N(C)C[C@H]2OCCCC[C@@H](C)Oc3ccc(NS(=O)(=O)c4c(C)noc4C)cc3C(=O)N([C@H](C)CO)C[C@H]2C)cc1 | u | x
CC=Cc1ccc2n(c1=O)C[C@H]1[C@H](CO)[C@@H](C(=O)NCc3ccccc3)N(CCC(F)(F)F)[C@@H]21 (mixture of isomers) | -5 | -9
C[C@@H]1CN([C@H](C)CO)C(=O)c2cc(C#Cc3ccccc3F)cnc2O[C@H]1CN(C)C(=O)C1CCC1 | -31 | -28

Screens from PubChem.
